# Bioassay records: PubChem, Broad Institute
# T cruzi repl – T. cruzi replication inhibition; T. cruzi beta-gal in NIH3T3, luminescence, 90 h; inhibition, % (test concentration not listed); 300,000 compounds, 1.4% hits; AID 1885;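 active = mean inhibition across valid replicates above about 55%, limit read from the data; inconclusive = mean below that limit but half or more replicates reach it; inactive = mean below it, under half of replicates reach it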;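 also: signal also drops with host cell toxicity which is not excluded here; 0% = plate median of DMSO wells and 100% = zero luminescence signal; higher percent means less beta-gal luminescence so fewer parasites; stock transfer was 50 nL into about 50 µL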
# MLL AF4-AF9 inh – blocks AF4 peptide binding to human AF9; P42568; AlphaScreen, biotin-AF4 peptide binding to FLAG-AF9; inhibition, % at 10 µM; 350,000 compounds, 0.47% hits; AID 651704;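 active = every replicate reaching a set inhibition limit, whatever the replicate mean, cut at about 25% in these data; inconclusive = mean inhibition reaches that limit but some replicates miss it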;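 also: 0% = plate neutral control median and 100% = total signal loss; the record names both 10 and 1 µM as test concentration; the first replicate is given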
# Target sequence (P42568 whole entry, looked up): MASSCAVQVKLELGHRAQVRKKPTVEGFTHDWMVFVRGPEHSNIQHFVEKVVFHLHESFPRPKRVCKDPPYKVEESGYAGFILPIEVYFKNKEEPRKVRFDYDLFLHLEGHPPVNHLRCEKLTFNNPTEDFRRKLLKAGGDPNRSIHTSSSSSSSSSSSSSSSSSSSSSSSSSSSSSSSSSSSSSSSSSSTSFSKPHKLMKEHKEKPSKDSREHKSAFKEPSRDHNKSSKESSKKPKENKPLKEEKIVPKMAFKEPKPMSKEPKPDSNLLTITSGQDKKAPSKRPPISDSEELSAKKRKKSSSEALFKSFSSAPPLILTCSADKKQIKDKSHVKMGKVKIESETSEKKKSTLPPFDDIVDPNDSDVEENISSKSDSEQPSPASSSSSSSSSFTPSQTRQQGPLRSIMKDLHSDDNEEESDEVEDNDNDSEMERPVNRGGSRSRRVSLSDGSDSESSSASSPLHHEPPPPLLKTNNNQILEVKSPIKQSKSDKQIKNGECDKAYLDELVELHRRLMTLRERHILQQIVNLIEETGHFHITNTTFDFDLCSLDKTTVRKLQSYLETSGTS
# FGF22 binding – FGF22 (human) thermal shift binding; recombinant FGF22 thermal shift, SYPRO orange fluorescence; percent of sucrose octasulfate shift, DMSO zero; 340,000 compounds, 1.5% hits; calls only at 9.99 µM;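 active = melting point raised past a set limit in the mean and every replicate; inconclusive = no clear call; three in four hits are not shown here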
# Target sequence (Q9HCT0 whole entry, looked up): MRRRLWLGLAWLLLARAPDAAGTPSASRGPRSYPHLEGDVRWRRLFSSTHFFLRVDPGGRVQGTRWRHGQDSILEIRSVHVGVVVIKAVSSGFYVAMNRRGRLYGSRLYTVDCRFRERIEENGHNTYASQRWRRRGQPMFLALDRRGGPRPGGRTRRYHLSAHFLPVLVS
# Beta cell apopt – blocks beta cell apoptosis. INS-1E cytokine-induced death, ATP luminescence, 48 h; percent of positive-control rescue, neutral wells zero. protection from apoptosis, % (no concentration beside the values). 300,000 compounds, 0.8% hits. AID 435005;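 active = all replicates at 75% or more, or half of them and the mean; inconclusive = half reach 75% but not the mean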;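 also: 0% = cytokine-treated negative control wells and 100% = positive control rescue; higher means more ATP so stronger rescue from cytokine killing; wells of about 40 µL received 100 nL stock; the first replicate is given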
# rRNA inh HTS – inhibits bacterial ribosomal RNA function over humanized ribosomes | E. coli WT GFP vs humanized-ribosome RFP mutants, fluorescence, 24 h; hits give low values; DMSO median 0, no signal -100 | GFP signal change (wild-type ribosome), % (no concentration beside the values) | 350,000 compounds, 1.6% hits | AID 720706;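 active = significant combined selectivity score with lowered wild-type GFP, culture density cut under 30%, mutant RFP and density less affected; inactive = any of these conditions unmet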; also: one replicate is shown; some compounds called inactive have numbers as strong as hits
# ALR H2O2 inh – blocks human ALR sulfhydryl oxidase activity; P55789; 290,000 compounds, 3.8% hits; inhibition, % (concentration not given with the values); purified ALR, DTT oxidation, H2O2 HRP-luminol luminescence;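 active = mean and each replicate at 75% or more; inconclusive = only one of the two met; inactive = neither met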;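 also: stock transfer was 7.5 nL into about 7.5 µL; 0% = neutral wells and 100% = wells with inactivated enzyme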
# Target sequence (P55789 whole entry, looked up): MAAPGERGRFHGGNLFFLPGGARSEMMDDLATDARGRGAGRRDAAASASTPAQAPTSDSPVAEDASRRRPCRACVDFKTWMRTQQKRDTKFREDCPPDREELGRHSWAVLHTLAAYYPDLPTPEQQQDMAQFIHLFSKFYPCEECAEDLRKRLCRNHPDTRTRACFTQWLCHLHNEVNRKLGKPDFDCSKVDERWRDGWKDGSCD
# Calb FLC – C. albicans growth modulation with fluconazole; C. albicans CaCi-2 (fluconazole-resistant clinical isolate) + fluconazole, Alamar Blue growth, 48 h; growth inhibition, % (no concentration beside the values); 300,000 compounds, 0.57% hits; AID 1979;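 active = most replicates above 75%; inconclusive = exactly half above 75%; inactive = most below 75%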;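 also: all wells also contain fluconazole at 8 µg/ml as a sub-toxic cotreatment; 0% = median of DMSO wells and 100% = median of geldanamycin control wells; wells of about 8 µL received 7.5 nL stock; the first replicate is given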
# RanGTP-Imp inh – inhibitors of RanGTP-importin-beta interaction, primary screen, biochemical, FRET, CFP-Ran, YFP-importin-beta, homogeneous. cell-free CFP-Ran/YFP-importin-beta FRET ratio. inhibition, % (concentration not given with the values). 300,000 compounds, 1.1% hits. AID 2216;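 active = most replicates above 15%; inconclusive = exactly half above 15%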;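 also: 0% = DMSO wells and 100% = Ran loaded with GDP instead of GTP; wells of about 40 µL received 100 nL stock; the first replicate is given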
# rRNA inh HTS OD600 – second read-out of rRNA inh HTS, no call of its own (marks repeat the call); OD600 change, %; measured here: OD600 growth;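 optical density of the mix in the first replicate; 0 = DMSO median and -100 = no signal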
# rRNA inh HTS RFP – second read-out of rRNA inh HTS, no call of its own (marks repeat the call); RFP signal change, %; measured here: RFP humanized mutant strains;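 first replicate; 0 = DMSO median and -100 = no signal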
# Numbers without * were called inactive; i = inactive; ? = inconclusive; / = not tested or not shown. Not all compounds are listed. The share of hits here may be higher or lower than overall.
SMILES,T cruzi repl,MLL AF4-AF9 inh,FGF22 binding,Beta cell apopt,rRNA inh HTS,rRNA inh HTS OD600,rRNA inh HTS RFP,ALR H2O2 inh,Calb FLC,RanGTP-Imp inh
CCOc1cc(NC(=S)NCC2CCCO2)c(OCC)cc1NC(=O)c1ccc(F)cc1 (stereo not given),-6,3.6,i,2,0,10,-2.2,-18,65,1.8
COc1ccc2cc3cc(C(=O)N4CCCC(C)C4)oc3nc2c1 (stereo not given),11,-2.7,i,-2,-16,-17,-4.0,-2,-3,-0.6
CCCC(=O)c1ccc(N2CCCCCC2)c(F)c1,7,/,/,23,/,/,/,/,-21,2.6
COc1ccc(CCNC(=O)CSc2nc3[nH]ncc3c(=O)n2-c2cccc(C(F)(F)F)c2)cc1OC,-1,-1.2,i,5,3,-1,1.4,-8,3,-0.8
Cc1ccc(NC(=O)/C(=C\C=C\c2ccccc2)NC(=O)c2ccccc2)cc1,-4,/,/,0,/,/,/,-10,-2,?
CCOC(=O)C1CCCN(c2c(N3CCN(C)CC3)c(=O)c2=O)C1 (stereo not given),-7,4.2,i,-5,14,16,0.3,-10,-5,-2.8
O=C(CNCc1ccc(Cl)cc1)N1CCc2ccccc2C1,-10,4.8,i,0,-1,8,2.8,/,-7,4.1
Nc1nc2ccccc2n1C(=O)CCc1ccccc1,1,/,/,6,/,/,/,-13,-1,0.7
Cc1c(C(=O)N2CCOCC2)oc2ccc(S(=O)(=O)N3CCCCCC3)cc12,18,/,/,/,/,/,/,-10,2,-0.4
COc1cccc(C(=O)N2CCSC2=S)c1,-8,/,/,-4,16,8,-0.2,8,-7,7.2
C(CNC1C2CC3CC(C2)CC1C3)CN1CCOCC1 (stereo not given),-13,/,i,-2,16,4,0.6,-15,1,2.2
Cc1ccc(C)c(NC(=S)N2CCC(NC(=O)c3cccc(F)c3)CC2)c1,-5,-8.4,i,0,3,17,-4.3,-1,-1,6.8
CC(C)CC(=O)Nc1ccc(S(=O)(=O)Nc2nccs2)cc1,-2,-9.9,i,-8,5,5,4.1,0,-11,-0.9
Cc1ccc(C)c(CN2CCC(CNC(=O)Nc3ccc(C)c(F)c3)CC2)c1,37,-0.2,i,24,16,4,2.1,-2,-9,6.3
Cc1ccc(NS(=O)(=O)c2ccc(-c3coc(C)n3)cc2)c(Br)c1,-3,-11,i,-4,-43,-61,2.5,0,4,-0.3
COc1ccc(C(=O)N/C=C/n2cnc3cc(C(F)(F)F)ccc32)cc1,-6,1.7,i,-8,6,7,-2.3,-2,-2,-1.4
COc1ccc(Nc2nnc(C)c3ccccc23)cc1,-5,-0.1,i,5,-5,-4,-3.8,/,2,-6.4
COc1ccccc1N(CC(=O)N/N=C(\C)c1cccc(Br)c1)S(C)(=O)=O,-17,/,/,2,/,/,/,0,0,8.6
Cc1ccccc1C(=O)/C(C#N)=N/Nc1c(C)n(C)n(-c2ccccc2)c1=O,-19,/,/,69,/,/,/,/,-1,5.1
CCOC(=O)c1sc(NC(=O)CSc2n[nH]c(-c3ccncc3)n2)c(C#N)c1C,-12,/,/,8,/,/,/,13,54,1.6
CC(=O)c1ccc(-c2ccc(C(=O)Nc3nc(-c4ccccn4)cs3)o2)cc1,/,0.2,i,-10,-1,1,-0.8,-8,/,/
COc1cc(NC2c3ccccc3C(=O)N2Cc2ccccc2Cl)cc(OC)c1 (stereo not given),-3,-8.7,i,-15,-11,-14,-8.4,-2,-8,-6.6
Nc1cc(Cl)nc(N/N=C/c2ccccc2[N+](=O)[O-])n1,-9,/,/,5,/,/,/,-13,9,-4.4
Cc1ccccc1-c1nnc(SCC(=O)Nc2ccc(Cl)cc2)n1N,-1,/,/,2,/,/,/,-7,?,2.1
COc1ccc2c(c1OC)C(=O)OC2CC(=O)O (stereo not given),-3,/,/,-7,/,/,/,-21,13,-1.8
COc1ccc(-c2noc(CCC(=O)NCc3cccnc3)n2)cc1,-3,/,/,-8,8,4,1.4,-4,-9,-0.6
O=C(COC(=O)c1ccc[nH]c1=O)Nc1ccc(N2CCCCC2)cc1,/,1.8,i,-7,22,11,11,54,/,/
S=c1[nH]nc(COc2cccc(Cl)c2)n1Cc1ccccc1,-8,-0.8,i,1,-34,-43,-4.5,5,48,-1.3
COc1cc(SC)ccc1C(=O)N1CCN(Cc2ccccc2)CC1,3,4.3,/,-1,11,2,-0.9,0,27,-4.1
Cc1cc(C)c(S(=O)(=O)c2ccc(Cl)cc2C)c(Cl)n1,56*,-0.5,i,-14,-31,-41,-8.8,-3,44,-1.5
CCCN(C(=O)/C=C/c1nc2ccccc2s1)C1CCS(=O)(=O)C1 (stereo not given),/,0.6,i,-7,-1,-8,-0.8,43,/,/
CCCCn1nc(C(=O)Nc2cc(C(F)(F)F)ccc2N2CCOCC2)ccc1=O,/,1.7,i,14,-36,-58,11,-4,/,/
COc1cccc(-c2c(C(=O)N/N=C/c3ccncc3)nnn2-c2nonc2N)c1,2,-1.9,i,-13,-7,-8,-9.5,-32,3,-0.1
Cn1cnc([N+](=O)[O-])c1Cl,-7,5.6,i,2,-1,8,1.0,0,-5,?
CC1(C)Nc2ccccc2C(=O)N1c1ccc(Br)cc1,-5,-0.7,i,-3,5,2,-1.4,-5,2,1.4
O=C(C1=NN(c2ccccc2)C2C(=O)N(c3cccc(Cl)c3)C(=O)C12)c1ccccc1 (stereo not given),/,6.6,i,-4,42,-1,0.0,40,/,/
Cc1ccc(/C=C(\C#N)C(=O)NC(C)c2ccccc2)o1 (stereo not given),11,-5.2,i,-8,9,15,-0.1,-4,-3,3.1
Cc1ccc(S(=O)(=O)NCCCC(=O)O)cc1,-14,1.0,i,-6,17,8,-0.6,-1,-7,1.7
Cc1ccccc1CSc1nnc(-c2ccco2)n1Cc1ccco1,6,/,/,4,/,/,/,5,46,-4.6
CCN(CC)C(=O)Cn1cc(S(=O)(=O)CC(=O)NC2CCCCC2)c2ccccc21,2,0.2,i,0,1,3,-0.5,-5,0,0.1

# Filtered by structure: the compounds so far containing a CF3 group
SMILES,T cruzi repl,MLL AF4-AF9 inh,FGF22 binding,Beta cell apopt,rRNA inh HTS,rRNA inh HTS OD600,rRNA inh HTS RFP,ALR H2O2 inh,Calb FLC,RanGTP-Imp inh
COc1ccc(CCNC(=O)CSc2nc3[nH]ncc3c(=O)n2-c2cccc(C(F)(F)F)c2)cc1OC,-1,-1.2,i,5,3,-1,1.4,-8,3,-0.8
COc1ccc(C(=O)N/C=C/n2cnc3cc(C(F)(F)F)ccc32)cc1,-6,1.7,i,-8,6,7,-2.3,-2,-2,-1.4
CCCCn1nc(C(=O)Nc2cc(C(F)(F)F)ccc2N2CCOCC2)ccc1=O,/,1.7,i,14,-36,-58,11,-4,/,/

# (continued)
SMILES,T cruzi repl,MLL AF4-AF9 inh,FGF22 binding,Beta cell apopt,rRNA inh HTS,rRNA inh HTS OD600,rRNA inh HTS RFP,ALR H2O2 inh,Calb FLC,RanGTP-Imp inh
C#CC[N+](C)(C)CC#Cc1ccc(C)cc1,1,-2.3,i,0,13,4,0.8,-6,3,4.2
COc1cc(NS(=O)(=O)c2ccc(NC(C)=O)cc2)ncn1,-2,/,/,-1,/,/,/,-4,9,2.4
O=C(O)c1cccn2c(=O)c3ccccc3nc12,2,/,/,-3,/,/,/,-5,4,0.9
Cc1cc(C)c(OCC(=O)Nc2cccc(NC(=O)c3ccco3)c2)c(Br)c1,17,/,/,-6,/,/,/,-1,-18,6.2
CCOc1ccc(NC(=O)CCC(=O)NNC(=O)Nc2cccc(Cl)c2)cc1,-21,0.6,i,1,14,13,0.6,/,-6,3.8
CCN(CCS(=O)(=O)c1ccc(Cl)cc1)Cc1nc2ccccc2c(=O)[nH]1,/,-0.6,i,-4,-8,4,-0.4,/,/,/
Cc1ccc2nc(SCC(=O)Nc3cccnc3Cl)[nH]c2c1,/,0.9,i,0,-11,-10,2.0,88*,/,/
COc1ccc(-c2noc(C(=O)NCc3ccccc3Cl)n2)cc1OC,3,-1.3,i,7,-8,4,3.0,-7,/,/
CCOC(=O)N1CCN(CCC(=O)Nc2ccc(Br)cc2)CC1,-5,/,/,-1,/,/,/,0,-1,-2.7
CCOC(=O)CCCNC(=O)CN1C(=O)NC(CCc2ccccc2)C1=O (stereo not given),-9,/,/,-1,/,/,/,-3,8,1.8
O=C(NC(Cc1c[nH]c2ccccc12)C(=O)Nc1ccc(F)cc1)c1cccs1 (stereo not given),-9,/,/,-5,/,/,/,/,5,-1.8
CCOc1cc(NC(=O)c2cccs2)c(OCC)cc1NC(=O)c1ccco1,6,/,/,-1,/,/,/,-141,9,-0.2
Cc1cccc(C)c1NC(=O)CN(C)C(=O)[C@H](C)NC(=O)c1ccco1,/,0.0,i,2,/,/,/,-1,/,/
CC(=O)c1cccc(NC(=O)c2sc3nc4n(c(=O)c3c2C)CCCC4)c1,-4,-1.5,i,11,0,4,-0.4,-15,-4,-0.4
CCc1ccc(C(=O)COC(=O)C(Cc2ccccc2)NC(=O)C2CCC(C)CC2)cc1 (stereo not given),-11,/,/,10,/,/,/,-6,-12,2.0
O=C(Nc1ccccc1N1CCN(C(=O)c2ccccc2)CC1)c1ccc(Cl)cc1,18,1.5,i,3,-19,-20,-5.5,-3,16,-1.5
C[C@H](NC(=O)Cc1ccccc1)C(=O)N1CCC2(CC1)NCCc1[nH]cnc12,-10,0.8,/,-6,6,13,0.1,-3,3,0.2
CCN(C(=O)CN1CCCCCC1)c1c(N)n(Cc2ccccc2)c(=O)[nH]c1=O,/,-5.8,i,-3,13,12,7.4,-4,/,/
O=[N+]([O-])c1cc(F)c2cccnc2c1O,-45,-0.7,i,0,-45,-72,-13,22,61,2.2
CN(CC(=O)NCC1CCCCC1)CC(=O)Nc1ccccc1Br,/,-0.5,i,0,-3,-14,-0.5,/,/,/
COc1ccc(OC)c(NC(=O)CC2C(=O)NCCN2C(=O)c2ccccc2)c1 (stereo not given),-2,-0.4,i,2,2,2,2.0,-6,1,-1.0
O=C(Cc1cccs1)N1CCN(c2ccccn2)CC1,2,/,/,-7,/,/,/,16,-3,-1.5
O=C(Cn1nnc2ccccc21)c1ccc([N+](=O)[O-])cc1,1,-0.5,i,-5,2,5,-2.6,-13,-7,0.0

# Some of the entries so far, as tab-separated lines.
Structure	T cruzi repl	MLL AF4-AF9 inh	FGF22 binding	Beta cell apopt	rRNA inh HTS	rRNA inh HTS OD600	rRNA inh HTS RFP	ALR H2O2 inh	Calb FLC	RanGTP-Imp inh
Cc1cccc(C)c1NC(=O)CN(C)C(=O)[C@H](C)NC(=O)c1ccco1	/	0.0	i	2	/	/	/	-1	/	/
CN(CC(=O)NCC1CCCCC1)CC(=O)Nc1ccccc1Br	/	-0.5	i	0	-3	-14	-0.5	/	/	/
CCN(C(=O)CN1CCCCCC1)c1c(N)n(Cc2ccccc2)c(=O)[nH]c1=O	/	-5.8	i	-3	13	12	7.4	-4	/	/
O=C(NC(Cc1c[nH]c2ccccc12)C(=O)Nc1ccc(F)cc1)c1cccs1 (stereo not given)	-9	/	/	-5	/	/	/	/	5	-1.8
O=C(Cn1nnc2ccccc21)c1ccc([N+](=O)[O-])cc1	1	-0.5	i	-5	2	5	-2.6	-13	-7	0.0
